Hsc70 = Hsc70 inhibitors, probe displacement, primary screen, biochemical, fluorescence polarization (AID 568). 83,000 tested, under 10 active. Hsc70 fluorescence polarization, probe displacement; higher % means a stronger effect; strong numbers were not always called active. displacement, % at 20 µM; hits with a dose series show IC50 in µM;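 active = displacement above 50% without optical interference and an IC50 on retest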;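 note: ATPase domain with a fluorescein-tagged ATP probe; 0% = vehicle and 100% = excess ADP; read after one hour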
MT1-MMP reporter = inhibitors of MT1-MMP promoter transcription, cell-based, luciferase reporter, luminescence (AID 618) | MT1-MMP promoter luciferase reporter cells, luminescence | calls from a first round at 10 µM; hits with a dose series show EC50 in µM | 0.62% of 87,000 active;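 active = over half of the reporter light lost at 10 µM or EC50 under 50 µM; inactive = the rest and hits that failed the dose series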;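 note: actives suppress MT1-MMP promoter-driven transcription so potencies describe inhibitors; HT1080 fibrosarcoma cells; overnight exposure; toxic or luciferase-blocking compounds were not removed from the actives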
WNV NS2B-NS3 inh = WNV NS2B-NS3 proteinase inhibition | P06935 | WNV NS2B-NS3 protease, fluorogenic substrate Ex360/Em465; stronger effect = lower value | AID 577 | 0.18% of 65,000 active | z-score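 (tested at a level between 10 and 100 µM)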;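 active = z-score at -3 or under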;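 note: score is relative to mean and spread of the compound wells of a plate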
Target sequence (P06935 1371-1501 limits assumed): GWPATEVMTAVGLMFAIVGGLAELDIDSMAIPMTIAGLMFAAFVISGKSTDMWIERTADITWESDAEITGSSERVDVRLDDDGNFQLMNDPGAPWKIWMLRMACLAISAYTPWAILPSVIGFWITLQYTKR
Target sequence (P06935 1502-1679 limits assumed): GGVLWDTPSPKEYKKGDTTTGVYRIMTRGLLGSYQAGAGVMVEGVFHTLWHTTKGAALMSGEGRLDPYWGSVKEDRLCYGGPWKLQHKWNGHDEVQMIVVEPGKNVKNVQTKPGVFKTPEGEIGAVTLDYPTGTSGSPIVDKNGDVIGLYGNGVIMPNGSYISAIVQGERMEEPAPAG
* hit, by the source's call; i = inactive; . = no result given. Outcome played no part in choosing rows; 0.77% or so of the library scored in one or more.

SMILES	Hsc70	MT1-MMP reporter	WNV NS2B-NS3 inh
CCSc1nnc(NC(=O)CSc2nc(C)cc(C)n2)s1	-2.7%	i	.
Cc1cc(=O)oc2cc(OC(C)C(=O)N3CCCc4ccccc43)ccc12 (stereo unspecified)	-5.5%	i	-0.42
Cc1ccnc(N2C(=O)c3ccccc3C2Nc2ccc3c(c2)OCCO3)c1 (stereo unspecified)	-0.5%	i	-0.51
COc1ccc(-c2noc(CCC(=O)N3CCC(C)CC3)n2)cc1	0.2%	i	.
O=C(Nc1nc(-c2ccccn2)cs1)C1COc2ccccc2O1 (stereo unspecified)	1.9%	i	2.5
O=C(NCc1ccccn1)c1cc(-c2ccccc2)on1	3.6%	i	-0.63
Clc1ccc2oc(-c3ccccn3)nc2c1	-2.8%	i	-1.2
Cc1nc2ccccc2c2c1C(=O)N(C(C)C)C2=O	-2.1%	i	1.5
CC(C)c1ccc(-c2nnn(Cc3nc4ccccc4s3)n2)cc1	7.9%	i	0.78
O=C(Nc1cccnc1)c1ccc(Oc2ccccc2)cc1	5.3%	i	0.95
CN(C)Cc1cc(C(C)(C)c2cc(CN(C)C)c(O)c(CN(C)C)c2)cc(CN(C)C)c1O	-3.6%	i	0.02
CC(=O)c1c(COC(=O)c2ccccc2)nc2ccccc2[n+]1[O-]	-2.3%	i	.
c1coc(-c2nc3c([nH]2)CCc2nonc2-3)c1	2.3%	i	.
CCN1C(=O)c2cccc3c(S(=O)(=O)NCc4ccco4)ccc1c23	1.9%	i	2.6
CC(C)NC(=O)CN(C)S(=O)(=O)c1ccc(F)cc1	1.2%	i	-0.16
COCCNc1nc2c(c(=O)n(C)c(=O)n2C)n1Cc1cccc(C(F)(F)F)c1	1.2%	i	-0.53
OCc1nc2ccccc2n1CC(O)COc1ccccc1 (stereo unspecified)	-0.1%	i	-0.8
CCN(CC)C(=O)CSc1nc(N)c(C#N)c(-c2cccs2)c1C#N	-2.7%	i	.
O=C(CSc1nnc(CNc2ccc(F)cc2)n1Cc1ccco1)N1CCCC1	-6.9%	i	1.2
CCC(c1nnnn1Cc1ccc2c(c1)OCO2)N1CCN(c2ccc(OC)cc2)CC1 (stereo unspecified)	-4.6%	i	-0.48
CCCCCc1nnc(N)s1	0.7%	i	.
CCN(CC)c1ccc(/C=N/n2c(=S)[nH]nc(C)c2=O)cc1	-1.4%	i	-0.69
CC1=C(C(=O)OCC2CCCO2)C(c2ccc(C)o2)C2=C(CC(c3ccc(N(C)C)cc3)CC2=O)N1 (stereo unspecified)	-0.8%	i	-0.86
CSCc1nnc(NC(=O)c2ccc(S(=O)(=O)N(CC(C)C)CC(C)C)cc2)o1	-2.4%	i	-0.83
Cc1cccc(NC(=S)N(CCN(C)C)C(C)c2ccccn2)c1 (stereo unspecified)	-0.4%	i	.
CCn1cc(C(=O)NC2CCCCC2)c(=O)c2cc(S(=O)(=O)N(C)C)ccc21	-3.8%	i	2.7
COc1ccccc1C1(O)CCN(C(=O)c2cccs2)CC1	3.1%	i	.
COc1cc(C(=O)N(Cc2cccc(Cl)c2)C2CCS(=O)(=O)C2)cc(OC)c1OC (stereo unspecified)	3.6%	i	.
COCCn1nnnc1CN1CCC(C)CC1	1.7%	i	.
CCc1nc(SC)[nH]c(=O)c1C	-11%	i	0.49
COc1cc2cc(C(=O)O)[nH]c2c(OC)c1OC	4.6%	i	.
CCOC(=O)C1=C(C)OC(N)=C(C#N)C1c1cc(C)sc1C (stereo unspecified)	2.6%	i	.
CCCc1cc(C(=O)Cc2ccc(C(=O)OCC)o2)c(O)cc1O	-10%	i	1
O=C1NCCCC1C(=O)Nc1ccccn1 (stereo unspecified)	3.6%	i	-0.13
COc1ccccc1-n1nc(C(=O)NCc2ccco2)c2ccccc2c1=O	-6.9%	i	0.24
CCCCN(C(=O)c1ccco1)c1nnc(-c2cc(OC)c(OC)c(OC)c2)s1	6.9%	i	-0.03
CCCS(=O)(=O)c1c(S(=O)(=O)CCC)c2c(N)cccn2c1C(=O)c1ccccc1	-7.1%	i	.
O=C1CCCc2c1nn(-c1ccccc1)[n+]2[O-]	3.0%	i	-0.34
CSCCC(NC(=O)c1ccccc1)c1nc(-c2ccccc2)no1 (stereo unspecified)	0.0%	i	-0.71
CC(=O)NC(C)C(=O)OCc1ccc(Cl)cc1Cl (stereo unspecified)	-3.1%	i	0.16
COc1cc(OC)cc(-c2cc3nc(C4CCN(C(=O)OC(C)(C)C)CC4)cc(=O)n3[nH]2)c1	-1.3%	i	.
CN(C)/C=C/c1c(C#N)c(=O)ncn1Cc1ccccc1	3.4%	i	-1.3
COc1ccc(Cn2nc(C)n(N(C)c3ncc(C(F)(F)F)cc3Cl)c2=O)cc1	1.5%	i	.
Cn1c(C(=O)O)c(CC(=O)Nc2ccc(F)cc2F)c2ccccc21	3.9%	i	-0.3
FC(F)(F)c1cnc(Nc2ccc(N3CCOCC3)cc2)c(Cl)c1	7.6%	i	-0.46
Cc1cc(C)n2c(SCC(=O)Nc3ccccc3)nnc2n1	2.8%	i	0.6
COc1cccc(S(=O)(=O)N2CCN(c3ccccc3F)CC2)c1	1.7%	i	-0.26
CCNC(=O)C1CC(=O)N(Cc2ccc3c(c2)OCO3)C(=Nc2ccc(F)cc2)S1 (stereo unspecified)	3.2%	i	-0.57
O=C(NCCN1CCCC1)c1ccc2c(=O)n(CCc3ccccc3)c(=O)[nH]c2c1	-4.5%	i	2.8
O=c1c2ccccc2nc2n1CCN2	2.1%	i	0.21

Additional compounds follow:
SMILES	Hsc70	MT1-MMP reporter	WNV NS2B-NS3 inh
Cc1ccc(OCC(=O)N2CCCCCC2)c(C)c1	-0.3%	i	-0.04
CCOC(=O)c1cnc2nc(COc3ccccc3)[nH]n2c1=O	2.9%	i	-0.19
O=C(Nc1ccccc1N1CCCCC1)c1ccco1	-1.2%	i	.
COC(=O)C1=C(C)NC(=O)NC1c1ccccc1 (stereo unspecified)	5.9%	i	1.6
Cc1cc(C)c2nc(-c3ccccn3)cc(C(=O)NCc3ccco3)c2c1	8.8%	i	-0.18
Cc1ccc(-c2nnc3ccc(SCC(=O)NCc4ccco4)nn23)cc1	-7.2%	i	-0.22
COc1ccc(CN2CCN(c3ccccn3)CC2)c(OC)c1	0.0%	i	1.9
O=C(NC1CCCCC1)c1ccc2c(=O)n(CC3CCCO3)c(=O)[nH]c2c1 (stereo unspecified)	0.6%	i	-0.08
CCOc1cc(/C=N/NC(=O)CNc2cccc(C)c2)ccc1OC(=O)c1ccccc1	1.7%	i	.
CCOc1ccccc1Nc1cc(C)nc2nc(C)nn12	0.7%	i	0.52
Cc1c(C(=O)N2CCOCC2)oc2c1C(=O)CC(C)(C)C2	6.1%	i	-0.2
Nc1nc(NCc2ccccc2)nc(-c2ccccc2)n1	1.2%	i	-0.98
CC1CCN(c2ccc(C(=O)NCCc3ccccc3)cn2)CC1	-1.6%	i	-2.7
CCOc1ccc(C(=O)N2CCN(c3cccc(C)c3C)CC2)cc1	-3.8%	i	1.4
O=C1CC(c2ccccc2)NC(=O)N1 (stereo unspecified)	1.8%	i	0.28
CCCOc1ccccc1NC(=O)c1ccc(N)cc1	2.9%	i	-1.1
O=c1cc(O)c(-c2ccccc2)c(Cl)[nH]1	1.6%	i	.
COC(=O)CSc1nc(-c2ccccc2)cc(-c2ccco2)c1C#N	-2.2%	i	-0.92
CCOC(=O)N1CCC(Nc2c(NCCCN(CC)c3cccc(C)c3)c(=O)c2=O)CC1	7.3%	i	-0.27
CCc1nc(-c2ccc(-c3ccc(OC)cc3)nc2OC)no1	1.3%	i	-1.1
CCOC(=O)N1CCN(C(=O)c2ccc(N3C(=O)c4ccccc4C3=O)cc2)CC1	-0.7%	i	0.47
Cc1nc2nc(-c3cccnc3)[nH]n2c(=O)c1Cc1ccccc1	0.1%	i	-0.97
C=CCSc1nnc(Cn2c(=O)sc3ccccc32)n1C	-3.7%	i	-0.22
COc1ccc2c(c1OC)C(=O)OC2Nc1ccccc1S(=O)(=O)C(F)F (stereo unspecified)	12%	i	-1
CN(C)C(CNC(=O)NC1CCCCC1)c1cccnc1 (stereo unspecified)	2.8%	i	0.63
COCCn1c(C23CC4CC(CC(C4)C2)C3)n[nH]c1=S	0.1%	i	-0.25
CS(=O)(=O)Nc1ccc(C(=O)N2CCN(c3ccccc3F)CC2)cc1	2.4%	i	.
CC(C)(C)NC(=O)CN(C(=O)CS(=O)CC(=O)Nc1ccc(F)cc1)c1ccc(Cl)cc1 (stereo unspecified)	-1.6%	i	-0.23
Cc1ccnc(NC(=O)CCC(=O)N(CC(=O)NCCc2ccccc2)Cc2ccco2)c1	-4.7%	i	-0.82
O=C(NCc1ccco1)c1ccc2c(=O)n(CCC3=CCCCC3)c(=O)[nH]c2c1	-18%	i	-1.1
CCOC(=O)Nc1sc(NS(=O)(=O)c2ccccc2)nc1C	3.8%	i	-0.86
Cc1cc(Oc2ccccc2)nc(OCC#N)n1	-3.4%	i	0.12
O=C1c2ccccc2NC(c2ccccn2)N1c1ccc(Cl)cc1 (stereo unspecified)	-2.6%	i	0.5
CCCCNc1nc2ccccc2n1CC(=O)N1CCc2ccccc2C1	-1.5%	i	0.17
CCCCCn1c(N(C)Cc2ccccc2)nc2c1c(=O)[nH]c(=O)n2C	-2.9%	i	0.95
CCOc1cc(/C=N/NC(=O)Cn2nc([N+](=O)[O-])cc2C)cc(Br)c1OCc1ccccc1C	-1.2%	i	.
CCOC(=O)c1sc(NC(C)=O)nc1C	9.2%	i	.
Cn1c(CNC(=O)c2ccc(F)cc2)nc2ccccc21	-0.1%	i	-0.72
COCc1nnc(NC(=O)CSc2ccc(C)cc2)s1	-8.6%	i	0.89
CCOC(=O)c1sc(C)c2c(=O)n(CC)nnc12	-4.0%	i	-0.55
CCOC(=O)c1oc2ccc(CNC(C)(C)C)c(Cl)c2c1C	4.2%	i	.
Cc1ccc(S(=O)(=O)Nc2cc(-c3nn(C)c(=O)c4ccccc34)ccc2N2CCOCC2)cc1	4.3%	i	.
CCNC(=O)/C=C1\NC(C)(C)Cc2c1ccc1ccccc21	3.7%	i	.
CCOc1ccc(-c2nc(N)ncc2Oc2ccccc2Br)c(O)c1	-3.1%	i	.
Cc1c(NCc2nc3ccccc3[nH]2)c(=O)n(-c2ccccc2)n1C	-0.9%	i	-0.48
CC1(C)CC(=O)C2=C(C1)OC(N)=C(C#N)C21C(=O)N(CN2CCOCC2)c2ccccc21 (stereo unspecified)	-2.7%	i	-0.89
Cc1cccc(N2CC3=C(C2=O)C(c2ccccc2)NC(=O)N3C)c1 (stereo unspecified)	5.1%	i	-0.92
NC(=O)C1CC(=O)N(Cc2ccc3c(c2)OCO3)C(=Nc2ccccc2)S1 (stereo unspecified)	-0.6%	i	0.76
CCN(Cc1ccccc1)C(c1ccncc1)c1nnnn1C(C)(C)C (stereo unspecified)	1.7%	i	0.9
CCOC(=O)N1CCC(NC(=O)c2cn(-c3ccc(OC)cc3)c(=O)c3ccccc23)CC1	-1.5%	i	1.6

(more compounds)
SMILES	Hsc70	MT1-MMP reporter	WNV NS2B-NS3 inh
COc1ccccc1C1CC(c2cccs2)=Nc2ccccc2S1 (stereo unspecified)	4.2%	i	.
CCOC(=O)C1(C)/C(=N/Nc2ccc(Cl)cc2)C(=O)C(=O)N1c1ccccc1 (stereo unspecified)	2.6%	i	.
CCOC(=O)c1[nH]c(C)c(C(=O)Nc2ccc(Cl)cc2)c1C	-2.9%	i	-0.44
COc1ccc(CCNC(=O)CSc2nnnn2-c2ccccc2)cc1	7.8%	i	0.61
Nc1cc(=O)nc(SCc2ccccc2)n1Cc1ccco1	6.3%	i	-0.26
COc1cccc(Cn2c(NCc3ccco3)nc3c2c(=O)n(C)c(=O)n3C)c1	-0.8%	i	0.34
Cc1cccc(C)c1NS(=O)(=O)c1ccc(F)cc1	1.6%	i	-0.94
COc1cccc(-c2nc(CC(=O)O)cs2)c1OC	-3.7%	i	-0.34
CCCNC(=O)c1ccccc1NC(=O)CN(c1ccccc1OCC)S(C)(=O)=O	6.6%	i	-0.29

Entries above that have fluorine:
SMILES	Hsc70	MT1-MMP reporter	WNV NS2B-NS3 inh
CC(C)NC(=O)CN(C)S(=O)(=O)c1ccc(F)cc1	1.2%	i	-0.16
COCCNc1nc2c(c(=O)n(C)c(=O)n2C)n1Cc1cccc(C(F)(F)F)c1	1.2%	i	-0.53
O=C(CSc1nnc(CNc2ccc(F)cc2)n1Cc1ccco1)N1CCCC1	-6.9%	i	1.2
COc1ccc(Cn2nc(C)n(N(C)c3ncc(C(F)(F)F)cc3Cl)c2=O)cc1	1.5%	i	.
Cn1c(C(=O)O)c(CC(=O)Nc2ccc(F)cc2F)c2ccccc21	3.9%	i	-0.3
FC(F)(F)c1cnc(Nc2ccc(N3CCOCC3)cc2)c(Cl)c1	7.6%	i	-0.46
COc1cccc(S(=O)(=O)N2CCN(c3ccccc3F)CC2)c1	1.7%	i	-0.26
CCNC(=O)C1CC(=O)N(Cc2ccc3c(c2)OCO3)C(=Nc2ccc(F)cc2)S1 (stereo unspecified)	3.2%	i	-0.57
COc1ccc2c(c1OC)C(=O)OC2Nc1ccccc1S(=O)(=O)C(F)F (stereo unspecified)	12%	i	-1
CS(=O)(=O)Nc1ccc(C(=O)N2CCN(c3ccccc3F)CC2)cc1	2.4%	i	.
CC(C)(C)NC(=O)CN(C(=O)CS(=O)CC(=O)Nc1ccc(F)cc1)c1ccc(Cl)cc1 (stereo unspecified)	-1.6%	i	-0.23
Cn1c(CNC(=O)c2ccc(F)cc2)nc2ccccc21	-0.1%	i	-0.72
Cc1cccc(C)c1NS(=O)(=O)c1ccc(F)cc1	1.6%	i	-0.94

High-throughput results: PubChem, several laboratories
